AID504770 – growth inhibition of E. coli YBA685, primary screen, V. cholerae RctB inhibitors | z-score (no concentration beside the values) | E. coli YBA685 rctB-dependent plasmid, OD600 growth, 3 h; active compounds read low | 130,000 tested, 0.27% active;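 active = z-score under -2 on both plates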;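 note: wells of about 30 µL received 100 nL stock; score is relative to mean and SD of the test wells; the first replicate is given; strong numbers were not always called active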
CapD inh – Bacillus anthracis CapD inhibitors, primary screen, biochemical, fluorescence intensity. purified CapD enzyme, fluorescence intensity read-out; active compounds read low; some hits fall short of the stated cut. CapD gamma-glutamyltranspeptidase (Bacillus anthracis Ames Ancestor). 140,000 tested, 0.23% active. AID 492967, 2010. z-score (concentration not given with the values);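 active = z-score under -4 in either of two replicates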;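 note: stock transfer was 100 nL into about 40 µL; score is relative to mean and spread of the plate; one replicate is shown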
* hit, by the source's call; . = no result given.

SMILES | AID504770 | CapD inh
CC(C)C1Nc2ccccc2S(=O)(=O)N1 (centres undefined) | 0.25 | 6.9
CC1(C)CC(=O)c2c(oc3c2cc(NS(=O)(=O)c2ccccc2)c2ccccc23)C1 | . | 0.22
CSc1ccccc1NC(=O)CN(C)Cc1cc(=O)n2ccsc2n1 | -0.1 | .
Cc1ccc(Cl)cc1-n1nnc(-c2nc(-c3ccc4c(c3)OCO4)no2)c1N | -0.65 | -0.39
FC(F)(F)c1nnc2c(Sc3ccc(Cl)cc3)nc3ccccc3n12 | . | 1.2
O=S(=O)(c1ccc(Cl)cc1)N1CCc2ccccc21 | -0.9 | 0.3
Cc1nc(C#N)c(Nc2ccccc2)o1 | -0.15 | 0.055
NC(=O)c1c(SCc2ccccc2)sc(C(=O)c2ccccc2)c1N | 0.45 | -0.22
C=C1C(=O)O[C@@H]2C3OC3(C)CC/C=C(\C)CC[C@@H]12 (some centres undefined) | . | 0.19
CCN(CC)c1cc(Nc2ccc(Br)cc2)c([N+](=O)[O-])c2nonc12 | . | 0.04
O=C(O)CNS(=O)(=O)c1ccc2ccccc2c1 | -1.4 | .
CCNC(=O)Cn1cc(C#N)c2ccccc21 | -0.5 | .
CSc1[nH]n2c(=O)cc(C)nc2c1S(=O)(=O)c1ccccc1 | -0.65 | 1.1
Cc1cccc(-c2nnc(SCC(=O)N3CCCCC3C)o2)c1 (centres undefined) | 0.75 | 1.4
COc1ccc(C2/C(=C(/O)c3ccccc3)C(=O)C(=O)N2CCNC(C)=O)cc1 (centres undefined) | . | -0.055
S=c1[nH]nc(-c2ccco2)n1-c1ccc(Oc2ccccc2)cc1 | . | 0.025
Cn1c(=O)c2c(nc3n(-c4cccc5ccccc45)c(-c4ccc(Br)cc4)cn23)n(C)c1=O | . | -0.12
Cc1nc2c(C(=O)NCc3ccccc3)c[nH]n2c(=O)c1Cl | -0.35 | 10
COCC(=O)NC(c1ccccc1)c1ccccc1 | -0.8 | -0.11
CCN(CC)c1nc(-c2ccccc2)nc2ccccc12 | 0.5 | .
COc1ccc(NS(=O)(=O)c2ccc3oc4ccccc4c3c2)cc1OC | -0.45 | 0.29
Nc1ccc(/C=C/c2ccccc2)cc1 | -0.25 | 47
COc1ccc(S(=O)(=O)NCc2csc(-c3ccccc3)n2)cc1OC | -0.35 | 2.7
O=C(Cn1ncc2ccccc21)NCc1cccc(Cl)c1 | -0.3 | -0.19
Cc1ccccc1-n1c(SCC(=O)O)nc2sc3c(c2c1=O)CC(C)(C)OC3 | -0.2 | 9.7
O=C(O)C1CCCN1/C=C/C(=O)C(F)(F)F (centres undefined) | 0.35 | .
O=C(CN1C(=O)C(c2ccccc2)=NC12CCCC2)Nc1ccccc1 | -0.9 | 43
CC1(C)CC2CC(C)(CN2C(=O)Nc2ccccc2)C1 (centres undefined) | -0.55 | .
COc1ccc(NC(=O)CCNS(=O)(=O)c2ccc3c(c2)c(=O)n(C)c(=O)n3C)cc1 | -0.6 | -0.085
COc1ccc(OCC2NCCc3cc(OC)c(OC)cc32)cc1 (centres undefined) | -0.75 | .
COc1ccc(N2C(=O)C3SC(N)=C(C#N)C4(CCCCC4)C3C2=O)cc1 (centres undefined) | -0.7 | .
CSc1nnc(CSc2ncccn2)n1CCc1ccccc1 | -1.4 | 9.5
COc1cc(/C=C2\SC(=O)N(C)C2=O)ccc1OCC(=O)O | -0.2 | -0.52
CC(C(=O)c1cn(-c2ccc(OC(F)(F)F)cc2)nn1)n1cncn1 (centres undefined) | . | -0.26
CCOC(=O)N1CCC(NC(=O)c2ccc3c(c2)N(Cc2ccccc2F)C(=O)c2ccccc2S3=O)CC1 (centres undefined) | -0.95 | -0.17
COc1ccc(-c2[nH]ncc2CN2CCC(O)(c3ccc(Cl)cc3)CC2)cc1 | -0.55 | -0.2
CC1CC2C3CCC4=CC(=O)C=C[C@]4(C)[C@@]3(F)[C@@H](O)C[C@]2(C)[C@@]1(O)C(=O)CO (some centres undefined) | 0.25 | .
CCC(=O)Nc1cccc(-c2cnc3ccccc3n2)c1 | -0.55 | -1
CCOC(=O)CSc1nnc(Cc2ccc(Cl)cc2)c(=O)[nH]1 | 0.2 | 0.54
CC1(C)CC(C)(O)P(=O)(c2ccccc2)O1 (centres undefined) | -0.05 | -0.08
CCOC(=O)C1=C(C)N(C2CCCC2)C(=O)NC1c1ccc(Cl)cc1 (centres undefined) | -0.9 | .
C=CCn1c(SCC(=O)O)nnc1-c1ccco1 | 0.35 | .
CCOC(=O)c1ccccc1NC(=O)c1sc(NC(=O)CCCOc2ccc(Cl)cc2Cl)c(C(=O)OCC)c1C | . | 2.5
CC1Cc2ccccc2N1C(=O)c1cnsn1 (centres undefined) | -0.75 | .
OC(COc1ccc(F)cc1)CN1CCN(c2nc3ccc(Cl)cc3s2)CC1 (centres undefined) | -0.35 | -0.92
CC(=O)Nc1cccc(NC(=O)Cn2c(-c3cccnc3)ccc(C#N)c2=O)c1 | -0.9 | .
CCN1C(=O)/C(=C/C=C2\Oc3ccccc3N2CC)SC1=S | -0.55 | .
Cc1cc(Br)ccc1NC(C)C(=O)N1CC(C)OC(C)C1 (centres undefined) | 0.3 | .
COCCCNC(=O)CSc1nc(Nc2ccc(F)cc2)c2ccccc2n1 | . | -0.48
COc1ccc(N2C(S)=C(C#N)C(=O)NC2c2ccccc2)cc1 (centres undefined) | -0.5 | .
OC1(c2ccccc2F)CCN(CCN2CCCCC2)CC1 | 0.6 | .
Brc1ccc(COc2ccc(-n3cnnn3)cc2)cc1 | 0.4 | .
CCCCCn1c(=O)[nH]c2cc(C(=O)N3CCN(C4CCCCC4)CC3)ccc2c1=O | -2.2 | 0.22
COc1ccc(CCNS(=O)(=O)c2cc(C(F)(F)F)cc(C(F)(F)F)c2)cc1OC | . | 0.05
CCOC(=O)C1=C(C)N=c2s/c(=C/c3cc4c(cc3Cl)OCO4)c(=O)n2C1c1cccc(OC)c1 (centres undefined) | . | 0.025
O=C(O)c1ccccc1C(=O)N1CCCC1 | -1.4 | 0.58
COC(=O)C1=CN(CCOC23CC4CC(CC(C4)C2)C3)C=C(C(=O)OC)C1c1cccc(Cl)c1Cl | . | 8.5
Fc1cccc(CN2CCN(Cc3ccccc3)CC2)c1 | -0.35 | 0.2
CCCCn1nnnc1COC(=O)c1ccccc1O | -0.2 | .
Cc1cc(-n2c(SCC(=O)Nc3ccc(C)c(Cl)c3)nc3n[nH]c(C)c3c2=N)ccc1Cl | . | 5.4

Shown with tabs: entries from further up.
SMILES	AID504770	CapD inh
Cc1cc(Br)ccc1NC(C)C(=O)N1CC(C)OC(C)C1 (centres undefined)	0.3	.
COCCCNC(=O)CSc1nc(Nc2ccc(F)cc2)c2ccccc2n1	.	-0.48
COc1ccc(N2C(S)=C(C#N)C(=O)NC2c2ccccc2)cc1 (centres undefined)	-0.5	.

Some of the entries so far, with two lines to a compound.
Value order: AID504770, CapD inh
Cc1nc2c(C(=O)NCc3ccccc3)c[nH]n2c(=O)c1Cl
    -0.35, 10
COCC(=O)NC(c1ccccc1)c1ccccc1
    -0.8, -0.11
CCN(CC)c1nc(-c2ccccc2)nc2ccccc12
    0.5, .

More structures.
SMILES | AID504770 | CapD inh
O=c1oc(-c2cccs2)nc2ccc(Br)cc12 | 1.5 | 0.16
NC(=O)C1CC(O)CN1c1ncnc2cc(-c3ccc(F)cc3)sc12 (centres undefined) | -0.4 | .
CC(C)C1CC(CCN2C(=O)CCC2=O)(c2ccccc2)CCO1 (centres undefined) | 0.35 | 0.33
O=C(c1ccc(N2CCCC2=O)cc1)N1CCN(c2ccc(Cl)cc2)CC1 | . | -0.69
O=C(CSc1nc2ncccc2o1)NCc1ccco1 | -0.15 | -0.9
CC1C/C(=C/c2ccccn2)C(=O)/C(=C/c2ccccn2)C1 (centres undefined) | -0.9 | .
CC1(C)Cc2ccccc2-c2nc(-c3ccccc3)n(Cc3ccccc3)c(=O)c21 | . | -0.13
O=c1[nH]c(C2=C(O)Cn3c2nc(=O)c2ccccc23)nc2ccccc12 | -0.65 | 4.2
CCc1nc2ccccc2n1C(=O)c1ccccc1C(=O)O | -0.2 | 0.08
O=C1OCCC1Sc1nnc(-c2cccc(S(=O)(=O)N3CCOCC3)c2)n1-c1cccc(Cl)c1 (centres undefined) | 0.1 | .
CCN(Cc1ccc2c(c1)OCCO2)C(=S)NCc1ccco1 | -0.3 | .
CCc1ccc(C(=O)c2cnc3cc4c(cc3c2N2CCC(C(N)=O)CC2)OCCO4)cc1 | 1.9 | -0.64
COc1cc(/C=C2\C(=O)NC(=O)N(C(C)(C)C)C2=O)cc(OC)c1O | 0.25 | 0.02
O=C1CCC(=O)N1c1ccc(S(=O)(=O)N2CCN(c3nccc(C(F)(F)F)n3)CC2)cc1 | 0.85 | 11
O=C(Nc1ccccc1)N(CC1CCCO1)C1CCS(=O)(=O)C1 (centres undefined) | -0.7 | 0.37
FC(F)(F)c1ccc(-c2[nH]ncc2-c2ccnc3ccccc23)cn1 | . | 1.2
CN(Cc1ccccc1)S(=O)(=O)c1ccc(CN2C(=O)c3cccnc3C2=O)cc1 | 0.05 | -0.16
NC(=S)N1CCN=C1c1ccccc1 | -1.1 | 0.27
Cc1nn(-c2ccccc2)nc1C(=O)Nc1cc(Cl)cc(Cl)c1 | 0.05 | -0.46
CNC1C2CN3CCC(O2)C13 (centres undefined) | 0.75 | 0.55

4 entries from above in a different format:
SMILES,AID504770,CapD inh
O=c1[nH]c(C2=C(O)Cn3c2nc(=O)c2ccccc23)nc2ccccc12,-0.65,4.2
COc1cc(/C=C2\C(=O)NC(=O)N(C(C)(C)C)C2=O)cc(OC)c1O,0.25,0.02
O=c1oc(-c2cccs2)nc2ccc(Br)cc12,1.5,0.16
CCc1nc2ccccc2n1C(=O)c1ccccc1C(=O)O,-0.2,0.08

Additional records
SMILES | AID504770 | CapD inh
O=C(Nc1nc(-c2ccc(Oc3ccccc3)cc2)cs1)c1sc2ccccc2c1Cl | . | -0.13
COc1cccc(CNC(=O)c2cnn(-c3cccc(F)c3)c2-n2cccc2)c1OC | -0.1 | -0.55
CCOC(=O)c1c(NC(C)=O)sc2c1CCCC2O (centres undefined) | 0.45 | 2.5
O=C(O)CC1S/C(=N\N=C2CCCCCCC2)N(c2ccccc2)C1=O (centres undefined) | 1.1 | 0.015
N/C(CC(=O)Nc1cccc(C(F)(F)F)c1)=N/O | -0.75 | 4.4
COC(OC)c1nc(SCc2ccc(Cl)cc2)ncc1C(=O)O | 1.8 | -1.4
Cn1ccnc1CSc1ncccc1C(=O)O | 0.75 | .
CCOc1ccccc1Nc1nc(N)nc(CN(C)C2CCCCC2)n1 | 0.05 | .
CCO[C@@H]1O[C@H](C(COCc2ccccc2)OCc2ccccc2)[C@@H](OCc2ccccc2)C1O (some centres undefined) | . | -1.9
c1ccc(CCSc2nnc(-c3cccs3)o2)cc1 | 0.95 | .
CCOC(=O)c1c(-c2ccc(C)cc2)csc1/N=C/c1c(C)[nH]n(-c2ccccc2)c1=O | . | -0.04
Cc1cc(C)c(C#N)c(Sc2ccccc2NC(=O)c2cccs2)n1 | . | -0.47
CCOC(=O)/C=C/c1ccc(-c2ccc(F)cc2)o1 | -0.25 | 49
CN(C)c1ccc(C(CNC(=O)C2CCCCC2)N2CCOCC2)cc1 (centres undefined) | -0.75 | -1.4
CC(C)NC(=S)N1CCN(C/C=C/c2ccccc2)CC1 | -0.25 | 0.52
O=C(/C=C/c1ccc(-c2cccs2)s1)Oc1ccc(Cl)cc1 | 2.6 | 0.06
N#CCCN(Cc1ccccc1)C(=S)Nc1ccc(F)cc1 | . | -0.11
NC(=S)NN1C2CSC1CS2 | -0.9 | 0.78
CC(C)(C)c1ccccc1NC(=O)c1c(O)c2cccc3c2n(c1=O)CC3 | . | 0.44
COCCN(CCOc1ccc(S(C)(=O)=O)cc1)S(=O)(=O)c1ccc(C)cc1 | . | -0.3

A different layout for four compounds above:
Order of values – AID504770	CapD inh
Cc1cc(C)c(C#N)c(Sc2ccccc2NC(=O)c2cccs2)n1
  .	-0.47
CCOC(=O)/C=C/c1ccc(-c2ccc(F)cc2)o1
  -0.25	49
CN(C)c1ccc(C(CNC(=O)C2CCCCC2)N2CCOCC2)cc1 (centres undefined)
  -0.75	-1.4
CC(C)NC(=S)N1CCN(C/C=C/c2ccccc2)CC1
  -0.25	0.52

Remaining list, next part
SMILES | AID504770 | CapD inh
Cc1ccc2ncc(-c3ccc4c(N)c(C)ccc4n3)cc2c1 | -0.3 | 2.3
CCOC(=O)c1cnc2ccc(Cl)cc2c1Nc1ccc(S(=O)(=O)Nc2ncccn2)cc1 | -0.35 | 2.2
C#CCn1c(C2CC(=O)N(c3ccccc3Br)C2)nc2ccccc21 (centres undefined) | 1.6 | .
COc1cccc(C2(c3ccc(O)cc3)CCCC2)c1 | 0.55 | 0.84
CCCc1cc(=O)n2c(-c3ccc(Cl)cc3)csc2n1 | -0.75 | 0.46
CC1CCN(S(=O)(=O)N2CCCC(C(=O)NCCCN3CCN(Cc4ccccc4)CC3)C2)CC1 (centres undefined) | -0.05 | 0.95
CCOc1ccccc1NC(=O)c1ccc(OCC(=O)N2CCOCC2)c(OC)c1 | -0.1 | .
CC(=O)N1CCC(N(C(=O)COc2ccccc2C(=O)NCC2CCCO2)C2CC2)CC1 (centres undefined) | . | -0.29
C(=NN1CCN(C2c3ccccc3-c3ccccc32)CC1)c1ccncc1 | -0.2 | 0.24
O=C(N/N=C/c1cccc(C(F)(F)F)c1)c1ccccn1 | -0.55 | .
COc1ccc(CNc2ncc(C#N)cn2)cc1 | -0.6 | -0.88
N=c1oc2cc(O)ccc2cc1C(=O)Nc1cccc(C(F)(F)F)c1 | -0.75 | 7.8
CCC12c3ccccc3C(c3ccccc31)C1C(=O)N(c3cc(Cl)ccc3C)C(=O)C12 (centres undefined) | . | 29
Nn1c(CO)nc2ccccc21 | 0.6 | 0.89

Screening data from PubChem.

Not all compounds are listed (hit frequency here may not be typical).
